# Rce1 inhib – inhibitors of yeast Ras-converting enzyme; Q03530; yeast membranes, quenched prenylated peptide cleavage fluorescence; calls only; 0.27% of 290,000 active; AID 2563;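 active = fall in fluorescence gain of 50% or more versus controls, with final raw signal at or below 3038400; inconclusive = same 50% fall but final raw signal above 3038400; inactive = fall in fluorescence gain under 50%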;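 also: plate controls were neutral control wells for no effect and wells lacking membranes for full effect; tested at 10 µM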
# HIV Env fusion – blocks HIV Env-driven cell-cell fusion; inhibition, % at 12.3 µM; 1.1% of 360,000 active; HeLa-JRFL Env/CEM21 cell fusion, luciferase;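 active = mean replicate inhibition score of at least 50 and every replicate individually at or above 50; inconclusive = only one of the two criteria met; inactive = mean below 50 and not all replicates reaching 50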;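 also: 0% = plate neutral controls and 100% = maraviroc near 300 nM; one replicate is shown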
# eIF4H FP inh – inhibitors of RNA binding by human eIF4H; inhibition, % at 35 µM; 0.94% of 290,000 active; Q15056; eIF4H fluorescence polarization binding assay;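 active = 50% or more with normal probe brightness, or confirmed in later tests; inconclusive = above 50% with abnormal brightness, or retests that disagree; inactive = below 50% or failed in later tests; about a fifth of its hits are not listed in these tables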;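 also: calls also rest on retests at 20 µM and on dose response follow-up; 0% = protein and probe with vehicle and 100% = probe without protein; strong numbers were not always called active; many hits fall short of the cut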
# MT1-MMP act inh – MT1-MMP (human) activation inhibition; 0.061% of 360,000 active; GFP/RFP ratio change, % at 20 µM; HT1080 RFP-PRO-GFP cells, GFP/RFP ratio fluorescence, overnight; percent of plate control window, DMSO zero; P50281;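 active = GFP/RFP ratio change of at least 30% with cell ATP level not reduced by more than half and red fluorescence within 50% of control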; also: strong numbers were not always called active
#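 Assay system: HT1080 RFP-PRO-GFP cells | Dosing: 20 µM single dose, 1% DMSO | Incubation: Cells overnight before dosing, compound overnight, 37 °C, 5% CO2 | Evaluation: GFP/RFP fluorescence ratio | Control set: DMSO-only wells and HT1080 RFP-L50D-GFP cell wells as references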
# CSC inhib – cancer stem cell inhibition; 1.1% of 300,000 active; inhibition, % at 7.5 µM; cancer stem cell-like cells viability, luminescence;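 active = mean at 75% or more and at least half the replicates too; inconclusive = mean and replicates disagree; tested in HMLE shEcad cells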;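 also: 0% = median of negative and 100% = median of positive control wells; the first replicate is given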
# PABP FP inh – blocks human PABP binding to poly(A) RNA; inhibition, % at 35 µM; 1% of 290,000 active; AID 2014; fluorescence polarization;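 active = 50% or more with normal probe brightness, or confirmed in later tests; inconclusive = above 50% with abnormal brightness, or retests that disagree; inactive = below 50% or failed in later tests; about a fifth of its hits are not listed in these tables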;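 also: calls also rest on retests at 20 µM and on dose response follow-up; controls were probe without protein and protein plus probe with vehicle; some compounds called inactive have numbers as strong as hits; many hits fall short of the cut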
# Target sequence (P11940 whole entry, looked up): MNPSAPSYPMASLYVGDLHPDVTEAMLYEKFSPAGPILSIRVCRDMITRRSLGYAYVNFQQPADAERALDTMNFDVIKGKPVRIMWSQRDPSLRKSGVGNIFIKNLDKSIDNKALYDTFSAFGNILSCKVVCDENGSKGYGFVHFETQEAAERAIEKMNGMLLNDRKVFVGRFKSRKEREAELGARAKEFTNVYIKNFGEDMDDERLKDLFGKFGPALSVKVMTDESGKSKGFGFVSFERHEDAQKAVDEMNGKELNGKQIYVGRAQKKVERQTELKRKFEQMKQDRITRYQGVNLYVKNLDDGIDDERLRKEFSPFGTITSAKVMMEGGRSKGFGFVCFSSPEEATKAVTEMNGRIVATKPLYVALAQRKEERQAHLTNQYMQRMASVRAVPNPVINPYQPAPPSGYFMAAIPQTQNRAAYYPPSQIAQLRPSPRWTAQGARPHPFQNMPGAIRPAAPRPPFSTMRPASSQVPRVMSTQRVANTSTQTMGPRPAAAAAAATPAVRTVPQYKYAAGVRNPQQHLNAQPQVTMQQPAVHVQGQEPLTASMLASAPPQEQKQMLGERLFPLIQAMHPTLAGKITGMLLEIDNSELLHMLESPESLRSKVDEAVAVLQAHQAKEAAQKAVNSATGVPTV
# UUG fidelity – modulators of start codon recognition fidelity in yeast; activity score, % at 18.7 µM; 0.13% of 350,000 active; S. cerevisiae UUG-firefly luciferase reporter, luminescence/redox ratio; AID 602363;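 active = replicate mean at a twofold rise or more, about +100% in these data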;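 also: firefly luciferase made from a UUG start codon reports start codon fidelity; reporter light over untreated wells divided by growth signal over untreated wells; some hits fall short of that in this replicate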
# eIF4H FP inh retest – second read-out of eIF4H FP inh, no call of its own (marks repeat the call); inhibition, %; compound at 20 µM; confirmation average;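 mean of two retest wells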
# PABP FP inh retest – recorded beside PABP FP inh, whose call it bears; inhibition, %; compound at 20 µM; confirmation repeats;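 mean of two retest wells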
# MT1-MMP act inh RFP – second read-out of MT1-MMP act inh, no call of its own (marks repeat the call); RFP signal change, %; measured here: RFP expression control read;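 0 = vehicle wells; hits needed this value within 50% of zero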
# Numbers without * were called inactive; i = inactive; ? = inconclusive; nt = not tested or not shown; + = active, no number.
SMILES,Rce1 inhib,HIV Env fusion,eIF4H FP inh,MT1-MMP act inh,MT1-MMP act inh RFP,CSC inhib,PABP FP inh,UUG fidelity,others
COc1ccc(-c2ccc(C3C(C#N)=C(N)Oc4n[nH]c(C)c43)o2)cc1 (centres undefined),nt,-245,?,-20,5,6,84*,-12,
O=C(CCCn1c(=O)[nH]c2ccccc2c1=O)NC1CCCCCC1,i,-20,-15,11,1,-1,4,8,
COc1ccc(/C=C2\SC(=N)N(c3ccc(F)cc3)C2=O)cc1,i,-8,13,4,2,30,-15,nt,
O=C(NCc1cccs1)C1CCC(CNS(=O)(=O)c2cccs2)CC1 (centres undefined),i,nt,4,-1,3,-7,-2,-19,
CCOc1ccccc1NC(=O)CSc1nnc(-c2ccncc2)o1,i,-1,nt,-2,3,nt,nt,-11,
CC(C)(C)c1ccc(-n2nc(C#N)c(Cl)cc2=O)cc1,i,-25,-13,-5,-21,nt,1,nt,
CN(CC(=O)Nc1ccccc1Sc1ccccc1)C1CCCCC1,i,24,-2,1,4,40,7,nt,
CCC(=O)Nc1ccc(NC(=O)/C=C/c2ccc(Cl)cc2)cc1,i,11,4,-1,-2,-2,-11,-25,
COc1ccc(NS(=O)(=O)c2ccc(N3CCCCC3)c(NC(=O)C(C)NC(N)=O)c2)cc1 (centres undefined),nt,4,nt,2,-4,-6,nt,-18,
CN(Cc1nccs1)C(=O)c1cc(COc2cccc3cnccc23)on1,i,33,-2,1,-28,-7,-1,-10,
CCS(=O)(=O)C(C)(CCl)C(=O)Nc1ccc(C(=O)OC)cc1 (centres undefined),i,2,-7,0,0,-1,-12,-12,
CS(=O)(=O)N1CCN(c2ccc(NC(=O)c3ccc(-c4ccc(Cl)cc4)o3)cc2)CC1,i,-406,-6,3,5,0,4,nt,
CCOC(=O)c1csc(-c2ccc(OC)c(OC)c2)n1,nt,-20,-2,5,4,-8,4,nt,
COc1ccc(NC(=O)CSc2nnc(-c3ccccc3C)n2N)cc1OC,i,3,2,-3,2,-5,-4,-2,
COc1ccccc1OC(C)C(=O)N1CCc2ccccc21 (centres undefined),i,-7,nt,2,4,-4,nt,1,
O=C(Nc1cccc(Cl)c1)N(CCN1CCOCC1)Cc1ccccc1F,i,-27,-3,9,30,-13,9,-2,
Cc1sc(NC(=O)c2ccco2)c(C(c2cccnc2)N2CCN(C)CC2)c1C (centres undefined),i,-26,3,1,-9,2,11,-18,
COc1ccccc1NC(=O)CC(NC1CCCCC1)C(=O)O (centres undefined),i,2,-4,2,2,-15,-3,nt,
CCSc1nnc(NC(NC(C)=O)(C(F)(F)F)C(F)(F)F)s1,i,-9,5,-1,1,-7,-6,-24,
CC(=C/C(=O)O)/C=C/c1ccc([N+](=O)[O-])cc1,nt,nt,-10,-7,4,6,2,nt,
CCc1nc2ccc(C(=O)NCc3ccc4c(c3)OCO4)cn2c1N(CC)CCN(C)C,nt,-20,nt,-9,6,nt,nt,-18,
O=C(CN1C2=NCCCN2c2ccccc21)c1ccc([N+](=O)[O-])cc1,i,11,-10,-1,0,-16,-6,nt,
CCCCOC(=O)C1Cc2ccccc2C(=O)O1 (centres undefined),i,-33,-10,0,5,-11,0,-11,
COc1cccc(NC(=O)Cn2nnc(C(=O)Nc3ccccc3)c2N)c1,i,-1,-15,3,1,-2,-12,nt,
COC(=O)c1c(NC(=O)c2ccccc2C(=O)O)sc2c1CCCC2,nt,-2,nt,1,3,nt,nt,-6,

# (listing goes on)
SMILES,Rce1 inhib,HIV Env fusion,eIF4H FP inh,MT1-MMP act inh,MT1-MMP act inh RFP,CSC inhib,PABP FP inh,UUG fidelity,others
CCCCCCC1CC(C)(C(=O)CNc2nncs2)OC1=O (centres undefined),i,-42,4,3,1,6,-3,nt,
OC(COc1ccccc1)Cn1c2ccccc2c2ccccc21 (centres undefined),i,-4,10,1,0,-4,4,2,
CCN1C(=O)C2C(c3ccccc3F)NC(Cc3ccc(O)cc3)(C(=O)OC)C2C1=O (centres undefined),i,-6,-12,-3,4,-24,-4,14,
Cn1ncc(Br)c1NC(=O)Nc1ccc(Cl)cc1,i,nt,-14,0,2,nt,2,-5,
Cc1ccc(C(O)c2ncc(-c3cccc(C(F)(F)F)c3)[nH]2)c(C)c1 (centres undefined),nt,-1,nt,6,3,nt,nt,-17,
CCc1c(C)nc2c(OC)cccc2c1SCCC(=O)O,i,-1,1,1,3,10,3,nt,
CCOC(=O)C1(CCOc2ccccc2)CCN(Cc2cc(OC)c(O)c(OC)c2)CC1,i,0,-13,-2,-1,-11,-6,-3,
COc1ccc(C2=NS(=O)(=O)N(C)C(C(=O)Nc3cc(C)ccc3O)=C2)cc1OC,i,nt,6,-2,-9,1,2,1,
O=C(Nc1ccc2nsnc2c1)C1CC1,nt,-3,8,-3,-3,-2,3,-12,
Cc1ccc2c(c1)c(C1=c3ccccc3=NC1=O)c(O)n2C,i,-5,-12,-3,-2,72,-1,-20,
C/C(CCc1ccccc1)=N/NC(=O)C(=O)NC(C)c1ccccc1 (centres undefined),i,-5,8,4,6,-3,6,nt,
CCN1C(=O)[C@H]2[C@@H](c3ccc(OC)cc3)N3C(=O)CN(CC4CC4)C(=O)[C@@]3(C)[C@H]2C1=O,i,22,-5,0,0,-4,13,-3,
CCOC1(OCC)N=C(N)C2(C#N)C(c3ccc(NC(C)=O)cc3)C12C#N (centres undefined),i,nt,22,0,6,10,10,-16,
Cc1ccc(-c2nn(-c3ccccc3)cc2/C=N/NC(=O)c2ccc3c(c2)OCO3)cc1,i,nt,-9,7,0,16,8,nt,
CCc1ccccc1NC(=O)CN(C)C(=O)COC(=O)c1ccco1,nt,-4,nt,-1,3,-16,nt,-10,
c1ccc(CN2CCN(C3CCCSc4ccccc43)CC2)cc1 (centres undefined),i,-126,nt,5,-1,29,nt,-16,
Cn1cnc2c1c(=O)n(Cc1ccccc1C#N)c(=O)n2C,i,5,-11,1,0,0,-2,-11,
COc1ccccc1/C=C/C=C1N=C(/C=C/c2ccc(Cl)cc2)OC/1=O,i,17,-4,11,11,-5,2,-21,
Cc1ccc(C)c(C(C)NC(=O)c2ccc(Br)o2)c1 (centres undefined),i,-5,2,4,7,-7,11,nt,
Cc1cc(Br)ccc1NC(=O)c1cnc(N2CCN(c3ccccn3)CC2)c2ccccc12,+,24,9,-11,-23,-11,-4,-2,
CCCCOc1ccc(C(=O)NCC(=O)N2CCN(C/C=C/c3ccccc3)CC2)cc1,nt,12,nt,0,-12,nt,nt,6,
Cc1cccc(NC(=O)c2cc(=O)n(Cc3ccccc3)c(=O)[nH]2)c1,i,4,-6,1,3,-5,1,nt,
CC(C)(C)c1[nH]c2ccccc2c1/C=N/O,nt,nt,3,2,-1,-22,-7,nt,
O=C(C1CCN(S(=O)(=O)c2ccccc2)CC1)N1CCC1,nt,-4,nt,2,6,-12,nt,-42,
COc1ccccc1/C=C/C(=O)Nc1cccc(S(=O)(=O)NC2=NCCCCC2)c1,i,9,-3,1,-4,0,-6,nt,

# 2 neighbouring records out of the list so far, quoted:
SMILES,Rce1 inhib,HIV Env fusion,eIF4H FP inh,MT1-MMP act inh,MT1-MMP act inh RFP,CSC inhib,PABP FP inh,UUG fidelity,others
O=C(C1CCN(S(=O)(=O)c2ccccc2)CC1)N1CCC1,nt,-4,nt,2,6,-12,nt,-42,
COc1ccccc1/C=C/C(=O)Nc1cccc(S(=O)(=O)NC2=NCCCCC2)c1,i,9,-3,1,-4,0,-6,nt,

# (next part)
SMILES,Rce1 inhib,HIV Env fusion,eIF4H FP inh,MT1-MMP act inh,MT1-MMP act inh RFP,CSC inhib,PABP FP inh,UUG fidelity,others
CCn1nc(NS(=O)(=O)c2ccccc2)c2cc3ccccc3nc21,i,0,-2,-5,0,-8,9,-5,
O=C(Nc1nnc([C@@H]2C[C@H](O)[C@@H](CO)O2)s1)c1cccc2ccccc12,nt,-29,nt,1,4,nt,nt,-16,
Cc1ccccc1OCCC(=O)OCC(=O)Nc1cc(S(=O)(=O)N2CCOCC2)ccc1Cl,i,21,5,2,4,-8,25,-26,
CCc1c(N)nc(N)nc1Nc1ccccc1C,nt,-18,nt,6,-8,nt,nt,-1,
Cc1ccccc1Nc1cc(C(=O)NCC2CCCO2)c2ccccc2n1 (centres undefined),i,0,-7,4,-2,nt,-2,-26,
O=C1Cc2ccccc2Sc2cc(OCCCN3CCCCC3)ccc21,i,nt,6,4,1,-7,-7,nt,
CN(C)CCN(Cc1ccccc1)c1nccc(N(C)C)c1C#N,i,nt,-1,-5,1,-7,5,-10,
CC(=O)N/C(=C/c1ccc(OS(=O)(=O)c2ccc(C)cc2)cc1)C(=O)NCCCO,i,3,0,-2,-4,-6,-6,-10,
O=C(Nc1ccc(C(=O)N2CCOCC2)cc1)c1ccccc1[N+](=O)[O-],i,-1,3,-3,-3,4,8,-8,
COc1ccccc1-c1nc(C#N)c(N2CCN(C(c3ccccc3)c3ccccc3)CC2)o1,i,nt,-6,-1,1,-2,-2,-7,
N#Cc1ccc(-c2ccco2)nc1SCC(=O)c1ccc(Cl)cc1,i,-50,38,-113,-1,1,-4,-5,
COc1cccc(C(=O)NCc2ccc(N3CCN(C(=O)OC(C)(C)C)CC3)cc2)c1,i,28,-8,0,-9,6,-3,-7,
O=C(CSc1nnc(CNc2ccc(F)cc2)n1CC1CCCO1)Nc1ccccc1 (centres undefined),i,nt,-1,-4,4,-28,6,nt,
CC(C)(C)OC(=O)N(CCc1ccccc1)Cc1ccccc1OCc1ccc(NC(=O)C2CCC2)cc1,nt,13,nt,-5,-15,nt,nt,-22,
Nc1nonc1-n1nnc(C(=O)N/N=C/c2c(Cl)cccc2Cl)c1CN1CCOCC1,i,-1,8,0,2,nt,14,2,
COc1ccc(C(=O)CSc2nc(C)cc(=O)[nH]2)cc1,i,nt,-10,3,2,12,-8,-47,
CN(CC(=O)Nc1ccc(F)cc1)C(=O)COC(=O)COc1ccc(C#N)cc1,i,-3,nt,3,5,-5,nt,-7,
COc1ccc(NC(=O)Nc2cccc(C(=O)N3CCOCC3)c2)cc1OC,nt,nt,7,1,-1,2,-2,-3,
Cc1sc2nc(SCC(=O)NCc3ccco3)[nH]c(=O)c2c1C,nt,1,-3,1,0,9,7,2,
CCCCCCc1c(C)c2ccc(OCC(=O)N[C@@H](Cc3ccccc3)C(=O)O)cc2oc1=O,i,nt,77,5,-3,-1,-3,-6,eIF4H FP inh retest=42;PABP FP inh retest=8
N#CC1(C#N)C(c2ccccc2)OC23CCCCC2C1(C#N)C(=N)O3 (centres undefined),i,-1,?,-25,24,-12,-2,3,
Cc1cccc2sc(NC(=O)[C@H](C)N3C(=O)C4CC=CCC4C3=O)nc12 (some centres undefined),i,15,-6,-6,-5,-15,-10,nt,
O=C1c2cccnc2C(O)N1Cc1cccs1 (centres undefined),i,nt,-4,4,1,-6,-1,-12,
Oc1ccc(Br)cc1/C=N/N1CCN(Cc2ccccc2)CC1,i,nt,-9,-5,-3,45,-3,-9,
CCOC(=O)Cc1csc(NC(=O)CCN2C(=O)c3ccccc3C2=O)n1,i,nt,-2,0,0,-8,2,1,
Cc1cc2c(c(C)nn2-c2ccccc2)c(=O)o1,i,nt,3,4,2,-9,2,0,
CC(C)(C)c1ccc(C2C3=C(CCCC3=O)NC3=C2C(=O)c2ccccc23)cc1 (centres undefined),nt,nt,-1,-11,-19,nt,6,6,
O=C(CN1CCc2ccccc2C1)Nc1ccccc1F,i,15,-8,1,0,4,-15,-10,
Cc1ccc(NC(=O)COC(=O)c2ccccc2F)cc1S(=O)(=O)N1CCCCC1,nt,-22,nt,5,4,nt,nt,6,

# From PubChem

# The list is partial. The share of hits here may be higher or lower than overall.
